Screening data (PubChem)
Vaccinia Venus – inhibitors of vaccinia virus (Venus reporter); Vaccinia virus Venus reporter expression, fluorescence; Potency, µM (series often up to 36.5 µM), for inactives: at the highest dose activity change, negative = inhibition, most hits filed as inhibitors; actives 0.46% (n = 330,000); AID 720580; active means well fitted inhibition curve with a large enough effect; inconclusive means small, poorly fitted or top-dose-only effect; inactive means no such curve, though single readings can be large or run the other way; tested in A549 cells; note: nearly all actives have a fitted effect of over 30% in size; inactives centre near -10
Vaccinia mCherry – inhibitors of vaccinia virus infection (mCherry reporter signal); AID 720579; actives 0.63% (n = 310,000); Potency, µM (highest dose often 36.5 µM), without a hit: at the highest dose activity change, negative = inhibition, hits mostly inhibitors; Vaccinia virus mCherry reporter infection, fluorescence; about a quarter of the inactives have no number; active = well fitted inhibition curve with a large enough effect; inconclusive = small, poorly fitted or top-dose-only effect; inactive = no such curve, though single readings can be large or run the other way; tested in A549 cells; note: nearly all actives have a fitted effect of over 35% in size; inactives centre near -10
The depositor's hits bear a star; i = inactive; ? = inconclusive; nt = no result given; [ ] = another dose, or the depositor's remark. % is set by controls: 0 for no effect and ±100 for the full control effect; potency is the fitted concentration of half-maximal effect.

Order of values: Vaccinia Venus	Vaccinia mCherry
CN1CCN(S(=O)(=O)c2cc(Cl)c(Cl)cc2Cl)CC1
 : -18%	-1%
CS(=O)(=O)N(CC(=O)N1CCOCC1)Cc1ccc(Cl)cc1
 : ?	nt
O=C(NNCc1ccccc1)c1ccccn1
 : -7%	-14%
CCc1nc(N2CCN(C(=O)c3ccccc3)CC2)c(C#N)c2c1COC(C)(C)C2
 : ?	?
Cc1cc(C)cc(OCCNC(=O)C2CCN(S(=O)(=O)c3ccccc3)CC2)c1
 : -13%	i
COc1ccc(-n2ncc3c(N(C)C4CCCCC4)ncnc32)cc1
 : -22%	?
O=C(Cc1ccc(Cl)cc1)Nc1ccccc1C(=O)N1CCCCC1
 : -19%	i
CC(=O)Nc1cc(-c2ccccc2N(C)C)cn2c(-c3ccc(S(C)(=O)=O)cc3)cnc12
 : 1%	?
O=C(CN1CCCC1)NC(c1ccccc1)c1ccccc1
 : 9%	-14%
CS(=O)(=O)N(Cc1nc2sc3c(c2c(=O)[nH]1)CCCC3)C1CCCCC1
 : -12%	nt
O=C(CSc1nc2ccccc2[nH]1)Nc1ccccc1N1CCOCC1
 : -21%	i
CCOc1ccc(N2CC(c3nc4ccccc4n3CCCOc3ccccc3OC)CC2=O)cc1 (configuration not stated)
 : -3%	-8%
Cc1cc(C)n(CC(O)COc2ccccc2C)n1 (configuration not stated)
 : -8%	-5%
S=c1[nH]cc2cnccn12
 : 9%	i
CC(C)NC(=O)COC(=O)c1ccc(O)cc1
 : -9%	-14%
Cc1cc(C)nc(NS(=O)(=O)c2ccc(NC(=O)Nc3ccccc3)cc2)n1
 : 6%	i
COC(=O)CC1=NN(c2ccc(OC)cc2)C(=O)/C1=C\c1ccc(Cl)cc1
 : -10%	-2%
Cc1cccc(CCNC(=O)c2ccc3c(c2)nc2n3CCC(C)C2)c1 (configuration not stated)
 : -8%	-4%
COC(=O)c1ccccc1NC(=O)CSc1nc2ccsc2c(=O)n1CCC(C)C
 : -14%	-7%
CCCCCC(=O)Nc1ccc(C(=O)COC(=O)c2ccccn2)cc1
 : 3%	-1%
COc1ccc2[nH]c(=O)c(CN(c3ccc(C)c(C)c3)S(C)(=O)=O)cc2c1
 : -19%	-7%
Cc1ccc(S(=O)(=O)Nc2cccc(C(=O)N3CCCC3)c2)cc1F
 : -9%	-12%
Cc1ccsc1CN1CCC(C(=O)NCc2ccccc2Cl)CC1
 : -19%	-23%
CCOCCCNC(=O)C(NC(=O)CNC(C)=O)c1ccc(Cl)cc1 (configuration not stated)
 : -3%	-10%
O=C(O)CCCCCNC(=O)CSc1nnc(-c2ccco2)n1-c1ccccc1
 : 2%	-20%
CNC(=O)c1c(Cl)cnn1-c1ccccc1
 : -4%	i
CCc1ccc(CNC(=O)c2ccc(NC(=O)N3CCSc4ncccc43)cc2)cc1
 : -10%	-8%
Cc1ccc(NC(=O)CN2C(=O)c3ccccc3Sc3ccc(C(=O)N4CCCC4)cc32)cc1
 : -10%	-4%
CCN(CC)c1nc(N)c2c(N)nc(OC)cc2c1C#N
 : ?	i
COc1ccc(S(=O)(=O)NCC(c2ccco2)N2CCOCC2)cc1C (configuration not stated)
 : -10%	-13%
COC(=O)c1ccc(Cn2c(=O)cc(C)c3c(C)nn(C)c32)cc1
 : -8%	-10%
COCCCNC(=O)c1c(NC(=O)c2cc(=O)c3cc(C)c(C)cc3o2)sc2c1CCCC2
 : -9%	-15%
CCN=C1SC(CC(=O)NCCc2ccc(OC)c(OC)c2)C(=O)N1CC (configuration not stated)
 : ?	-3%
Cc1c(CC(=O)N2CCC(C(=O)O)CC2)c(=O)oc2cc3c(cc12)CCC1(CCCCC1)O3
 : -4%	0%
CC(C)[C@@H](N)C(=O)NC[C@H]1O[C@@H](n2cnc3c(=O)[nH]c(N)nc32)[C@H](O)[C@@H]1O
 : 1%	-1%
COC(=O)C[C@@H]1C=C[C@@H](NC(=O)c2ccccc2F)[C@@H](CO)O1
 : 19%	15%
COc1ccc(-c2[nH]c3ccccc3c2SCCNC(=O)c2ccc(S(=O)(=O)N(C)C)cc2)cc1
 : -20%	i
C[C@H](CO)N1C[C@H](C)[C@@H](CN(C)Cc2cccc(F)c2)Oc2cc(-c3cccc(C#N)c3)ccc2S1(=O)=O
 : -11%	-10%
O=C(COC(=O)c1cc(=O)c2ccccc2o1)Nc1ccc2ccccc2c1
 : 4%	-13%
Cc1ccc2nc(NC(=O)CSc3ncc(C(=O)Nc4ccc(F)cc4)c(=O)n3C)sc2c1
 : 5%	-6%
O=C(CC1Sc2ncnn2C1=O)Nc1ccc(Cl)cc1 (configuration not stated)
 : -8%	-2%
CC(C)C(NS(=O)(=O)c1ccc2c(c1)OCCO2)C(=O)NCCc1ccccn1 (configuration not stated)
 : -10%	-22%
CC1=CCC2C(=O)N(CCc3c[nH]c4ccccc34)C(=O)C2C1 (configuration not stated)
 : -7%	-18%
COC(=O)c1ccc2c(=O)n(CCCCCC(=O)O)c(=O)[nH]c2c1
 : -5%	-24%
CC(C)C[C@@H]1O[C@H](CCc2ccccc2)Cc2[nH][nH]c(=O)c21
 : -10%	i
O=C(Nc1ccccc1N1CCCC1)c1ccc([N+](=O)[O-])cc1Cl
 : -5%	?
O=C(CCN1C(=O)c2cccnc2C1=O)NC1CCCCCC1
 : -10%	i
Cc1cccc(C)c1NC(=O)Cn1c(=O)c(N2CCCCC2)c(N)n(C)c1=O
 : -9%	-1%
COC(=O)C1(c2ccccc2)NC(c2ccc(O)cc2)C2C(=O)N(c3ccc4c(c3)OCO4)C(=O)C21 (configuration not stated)
 : 0%[7.34 µM]	-4%[7.34 µM]
CCc1nc2nc(C)cc(Nc3cc(Cl)ccc3OC)n2n1
 : 0%	2%
Cn1nnc2cc(NC(=O)NCc3ccc4c(c3)OCO4)ccc21
 : -11%	i
O=C(NCCc1ccccc1)c1cccc2c1C(=O)N(C1CCCCC1)C2
 : -4%	-22%
CC1(C)C(=O)Nc2ccccc2N1C(=O)COC(=O)c1cc(S(=O)(=O)N2CCOCC2)ccc1F
 : -27%	-7%
O=S(=O)(NN1CCOCC1)c1ccc(Br)cc1
 : -5%	i
Cc1ccc(S(=O)(=O)N2[C@@H](c3ccc(C(C)(C)C)cc3)C(C(=O)O)=CC[C@H]2c2ccc(C(C)C)cc2)cc1
 : ?	?
Cc1cc(C)nc(N2CCC(C(=O)NCc3ccccc3F)CC2)n1
 : -5%	i
O=[N+]([O-])c1ccccc1C=CC=NN=Cc1ccccc1O
 : -11%	i
O=C(NCCN1Cc2ccccc2C1=O)c1cccs1
 : -13%	i
O=C(Cc1c[nH]c2ccccc12)NCc1cccs1
 : -11%	i
CCOC(=O)C1=C(Cc2ccc(Cl)cc2)C(=O)c2ccccc2C1=O
 : nt	305%[activator]

The list goes on.
Order of values: Vaccinia Venus	Vaccinia mCherry
C=CCSC1=C(C#N)C(c2cc(Br)c(O)c(OC)c2)CC(=O)N1 (configuration not stated)
 : -23%	-8%
O=[N+]([O-])c1ccc(/C=N/Nc2ncc(Br)cn2)cc1
 : 2%	-12%
O=C(c1ccco1)N1CCN(S(=O)(=O)c2ccc3c(c2)OCCO3)CC1
 : ?	-18%[1.46 µM]
Cc1ccc(Sc2c([N+](=O)[O-])c(C)nn2C)cc1
 : -2%[7.34 µM]	i[7.34 µM]
CCC(=O)Nc1ccc(C(=O)N/N=C/c2cccnc2)cc1
 : -2%	-14%
COc1cc2c(cc1OC)-c1cc(=Nc3c(C)cc(C)cc3C)n(C)c(=O)n1CC2
 : -23%	-28%
Cc1ccccc1NS(=O)(=O)c1ccc(C)c(NS(C)(=O)=O)c1C
 : -7%	i
O=C1COc2ccc(C(=O)COC(=O)Cc3c(F)cccc3Cl)cc2N1
 : -14%	i
CC1CCCC(C)N1C(=O)COC(=O)c1cncc(Br)c1 (configuration not stated)
 : -4%	-4%
COC(=O)c1ccccc1NC(=O)c1cc2ccccn2n1
 : -9%	-23%
CCOC(=O)c1ccc(NS(=O)(=O)c2ccc3c(c2)CCN3C(=O)CC)cc1
 : -5%	-2%
Cc1cc(C)cc(NC(=O)NCC2CCN(Cc3cc(C)ccc3C)CC2)c1
 : -21%	-28%
Cc1cc(Br)cn2c(Cc3cccc(F)c3)c(-c3ccccc3)nc12
 : -5%	-2%
COCC(COS(N)(=O)=O)C(C)C (configuration not stated)
 : -5%	i
Clc1ccc(-c2nnc(-c3ccc4ccccc4c3)o2)cc1
 : 1%	i
CC1=C(C(=O)Nc2ccccn2)C(c2ccccc2)n2ncnc2N1 (configuration not stated)
 : -1%	nt
CC1(C(=O)NS(=O)(=O)C2CC2)CCCN(C(=O)c2cc3ccccc3s2)C1 (configuration not stated)
 : 16%	-1%
C[C@@H]1CN([C@H](C)CO)C(=O)CCCn2cc(nn2)CO[C@H]1CN(C)C(=O)Nc1ccccc1
 : -6%	-6%
CN(C)CC(C)(O)c1ccc2c(c1)CN(Cc1cnn(-c3ccccc3)c1)CCO2 (configuration not stated)
 : 13%	-13%
Cc1ccc(S(=O)(=O)N2CCCC(C(=O)NCCc3ccc(S(N)(=O)=O)cc3)C2)cc1 (configuration not stated)
 : -8%	-13%
CC1Cc2ccccc2N1C(=O)c1cc2cccnc2n(C)c1=O (configuration not stated)
 : -4%	-15%
COC(=O)CSc1ncnc2c1cnn2-c1ccc(C)cc1C
 : 6%	-11%
Brc1cccc(OCCSc2ncccn2)c1
 : -1%	-6%
O=C(Nc1ccc(OCC(=O)N2CCOCC2)cc1)c1cccc(Cl)c1
 : -6%	-13%
CSc1nc2c(c(=O)[nH]c(=O)n2C)n1C/C=C(\C)Cl
 : -13%	i
COc1cc2cc(CCOC(=O)N3CCCCC3)oc(=O)c2cc1OC
 : -14%	-4%
COc1ccc(-c2csc(Nc3ccc(O)cc3)n2)cc1
 : ?	?
CC1OC1c1ccc(-c2ccc(C3OC3C)cc2)cc1 (configuration not stated)
 : -6%	-18%
Cc1cc(=O)oc(C)c1C(=O)NCCNC(=O)c1c(C)cc(=O)oc1C
 : -10%	nt
O=C(COc1ccccc1)Nc1ccc2nc(SCCOc3ccccc3)sc2c1
 : -5%	-14%

Entries listed so far with a cyano group, in the order listed:
Order of values: Vaccinia Venus	Vaccinia mCherry
CCc1nc(N2CCN(C(=O)c3ccccc3)CC2)c(C#N)c2c1COC(C)(C)C2
 : ?	?
CCN(CC)c1nc(N)c2c(N)nc(OC)cc2c1C#N
 : ?	i
C[C@H](CO)N1C[C@H](C)[C@@H](CN(C)Cc2cccc(F)c2)Oc2cc(-c3cccc(C#N)c3)ccc2S1(=O)=O
 : -11%	-10%
C=CCSC1=C(C#N)C(c2cc(Br)c(O)c(OC)c2)CC(=O)N1 (configuration not stated)
 : -23%	-8%

(listing goes on)
Order of values: Vaccinia Venus	Vaccinia mCherry
O=C(Nc1cccc(C(F)(F)F)c1)N(Cc1ccc(Cl)cc1)CC(O)C(F)(F)F (configuration not stated)
 : ?	nt
CCc1ccc(NC(=O)c2cnn(-c3ccccc3)c2-n2cccc2)cc1
 : -12%	-12%
CCNc1ncnc2c1cnn2C1CCCO1 (configuration not stated)
 : -2%	i
Cc1oc2c(cc(NS(=O)(=O)c3ccc(Br)cc3)c3ccccc32)c1C(=O)OCc1ccccc1
 : 0%	-11%
CS(=O)(=O)N1CCc2cc(-c3csc(NC(=O)Cc4ccccc4)n3)ccc21
 : ?	?
Cc1cc(C)c2c(CC(=O)NCCc3ccccc3)coc2c1
 : -11%	i
CCc1c(N)nc(N)nc1Nc1ccc(C)c(C)c1
 : -21%	?
CCSc1nnc(NC(=O)c2ccco2)s1
 : -5%	nt
Cc1nnsc1Sc1ccccn1
 : -6%	i
COC(=O)c1nn(C)c(=O)[nH]c1=O
 : -6%	i
CSc1nc(O)cc(=O)n1-c1ccc(F)cc1
 : -8%	-2%
CC(=O)Nc1cccc(NC(=O)CSc2ncc(C(=O)Nc3ccc(F)cc3)c(=O)n2C)c1
 : 1%	-10%
Nc1nn(-c2ccccc2)nc1C(=O)OCc1ccc(Cl)cc1
 : -10%	-9%
CCOc1ccc(OCC)c(NC(=O)CC(C)n2nc(C)cc2C)c1 (configuration not stated)
 : -12%	-8%
C=CCN1CC2CC3(COc4cc(C)cc(C)c4)C=CC2(O3)C1=O (configuration not stated)
 : 17%	nt
CC(/C=C/c1ccc2c(c1)OCO2)=N\NC(=O)C(O)c1ccccc1 (configuration not stated)
 : -17%	-14%
O=C(O)C1CCC(C(=O)O)SS1 (configuration not stated)
 : -13%	i
Cc1ccccc1-c1noc(CSc2nc(-c3ccc(F)cc3)cc(=O)[nH]2)n1
 : -8%	i
COc1cc(Cl)cc(/C=C/c2ccc3ccccc3n2)c1OC(C)=O
 : ?	?
CCc1ccc(CN2CCN(Cc3cc(Br)ccc3O)CC2)cc1
 : -14%	i
CCOC(=O)c1cc2c(=O)[nH]c(C(Cl)(Cl)Cl)nc2o1
 : -14%	-3%
COc1ccc([N+](=O)[O-])cc1CSc1ccccn1
 : -3%	i
CC1(C(=O)OCC(=O)NCCNC(=O)COC(=O)C2(C)CC2(Cl)Cl)CC1(Cl)Cl (configuration not stated)
 : -10%	-1%
CCOC(=O)c1nc(N)sc1C(=O)OCC
 : -19%	nt
NC(c1csc(NC(=O)Nc2cccc(Cl)c2)n1)C1CCCCC1 (configuration not stated)
 : ?	?
O=C(NC(=S)Nc1ccc(NC(=O)c2ccccc2)cc1)c1ccc(F)cc1
 : -13%	i
Cc1cc(C)n2cnnc2n1
 : -20%	i
